Screens (PubChem BioAssay)
Rango-impB inh: inhibitors of Rango-importin beta complex formation | Rango CFP/YFP FRET sensor + importin beta, 45 min | Potency, µM (series often up to 92.2 µM), without a hit: at the top dose inhibition of complex formation | hit rate 0.031% among 340,000 | AID 540263; active = rising FRET ratio curve, often small or poorly fitted; inconclusive = mostly compound fluorescence or quenching in the first reads; inactive = flat curves in all reads;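 also: potency is read from the fitted curve at half-maximal effect; 0% = DMSO wells and 100% = buffer wells lacking importin beta; nearly all actives have a fitted effect of over 15% in size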
Target sequence (Q14974 whole entry, looked up): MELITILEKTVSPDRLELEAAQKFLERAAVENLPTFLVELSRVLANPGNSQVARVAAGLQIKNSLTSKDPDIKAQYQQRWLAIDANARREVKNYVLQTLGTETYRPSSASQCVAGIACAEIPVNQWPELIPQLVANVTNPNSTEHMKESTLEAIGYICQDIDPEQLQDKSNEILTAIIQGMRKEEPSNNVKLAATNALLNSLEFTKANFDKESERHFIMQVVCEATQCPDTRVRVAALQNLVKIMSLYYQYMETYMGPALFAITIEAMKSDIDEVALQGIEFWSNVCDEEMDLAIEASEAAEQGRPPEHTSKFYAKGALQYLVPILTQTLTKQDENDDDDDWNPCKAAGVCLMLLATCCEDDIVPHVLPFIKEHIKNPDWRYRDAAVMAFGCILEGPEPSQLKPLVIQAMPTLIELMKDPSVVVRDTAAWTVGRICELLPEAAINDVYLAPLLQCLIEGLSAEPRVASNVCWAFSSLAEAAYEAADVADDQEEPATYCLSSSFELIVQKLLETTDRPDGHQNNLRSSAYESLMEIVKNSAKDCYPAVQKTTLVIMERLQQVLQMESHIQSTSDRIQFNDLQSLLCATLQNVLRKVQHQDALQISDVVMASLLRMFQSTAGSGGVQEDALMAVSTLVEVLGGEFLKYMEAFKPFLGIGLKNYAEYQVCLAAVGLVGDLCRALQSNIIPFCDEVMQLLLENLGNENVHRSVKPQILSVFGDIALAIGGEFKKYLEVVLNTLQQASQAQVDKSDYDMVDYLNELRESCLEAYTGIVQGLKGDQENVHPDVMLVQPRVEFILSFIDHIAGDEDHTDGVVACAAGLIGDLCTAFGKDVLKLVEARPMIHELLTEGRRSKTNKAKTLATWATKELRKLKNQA
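Inhibition scored from the CFP 486 nm/YFP 530 nm FRET ratio 45 min after adding 0.125 microM importin beta to 50 nM Rango biosensor preincubated 5 min with compound (room temperature, PBS with DTT, Tween-20, BSA). No-importin wells as positive control.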
GLA inh pH 4.5: alpha-galactosidase A (human) inhibition, pH 4.5. purified enzyme, 4-MU-alpha-Gal fluorescence, pH 4.5. activity change, negative = inhibition, % at 105 µM. 230,000 tested, under 10 active. AID 1467; inconclusive = small, poorly fitted or top-dose-only inhibition, or a rising curve; inactive = flat fitted curve, though single readings scatter; no compound was filed as active;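 also: 0% = full activity with enzyme and -100% = basal without enzyme; dose as in the result columns while the protocol names 77 µM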
Rango release inh: inhibitors of RanGTP-induced Rango-importin beta complex dissociation. hit rate 0.071% among 340,000. AID 540253. Biochemical FRET Rango-importin beta, RanGTP-induced dissociation. Potency, µM (top dose mostly 46.1 µM), inactives show top-dose activity change, negative = inhibition. O95149+P62826; active means falling FRET ratio curve, often poorly fitted, with flat reads before Ran was added; inconclusive means other falling curves, or compound fluorescence or quenching; inactive means flat or rising ratio curve;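 also: potency is read from the fitted curve at half-maximal effect; % of control where 0% means no effect; nearly all actives have a fitted effect of over 45% in size; -100% = wells without RanGTP and RCC1; the record marks most hits as doubtful in a second field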
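Rango (0.1 uM)–importin beta (0.25 uM) complex; RanGTP-RCC1 trigger; 45 min RT; CFP/YFP FRET read.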
miR-21 FLuc: raises the signal of a miR-21 reporter; 340,000 tested, under 10 active; HeLa miR-21 FLuc reporter, luciferase, 48 h; Potency, µM (highest dose often 38.3 µM), for inactives: at the highest dose reporter change, positive = more light; AID 2288; active = well fitted rising curve with a large enough effect; inconclusive = small, poorly fitted or top-dose-only effect; inactive = no such curve, though single readings can be large or run the other way;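 also: % of control where 0% means no effect; miR-21 action dims this reporter so a rising signal means less miR-21 action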
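HeLa cells endogenously expressing miR-21, stably carrying CMV-driven firefly luciferase with a downstream miR-21 binding site, 2000 cells/well. Titrations up to approximately 40 uM, 48 hours; luciferase luminescence read.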
* = called active by the depositor; ? = inconclusive; / = no result given; & = joins results of further samples. Some of the compounds tested; rates above refer to the full screens.

SMILES	Rango-impB inh	GLA inh pH 4.5	Rango release inh	miR-21 FLuc
COc1cc(Nc2nc3ccccc3nc2NS(=O)(=O)c2ccc([N+](=O)[O-])cc2)cc(OC)c1OC	6.4%	/	-1%	8%
Cc1ccc(S(=O)(=O)N2CCC[C@H]2C(=O)Nc2ccccc2C)cc1	5.1%	/	15%	/
C#CCOCCOCCOCCNc1nc(N2CCN(C(=O)Cn3cc(CCCN=C(N)N)nn3)CC2)nc(N2CCN(C(=O)[C@H]([C@@H](C)CC)n3cc(CCC(=O)O)nn3)CC2)n1	2.8%	-10	-8%	0%
CC1(C)CC(=O)C=C(c2cccc(O)c2)C1=O	3.1%	/	2%	/
C=CCN1C(=O)c2ccc(C(=O)NCCc3ccc(OC)c(OC)c3)cc2C1=O	1.1%	/	-6%	-3%
CC1=C(C(N)=O)C(c2ccccn2)n2nc(-c3ccccc3Cl)nc2N1 (stereo not given)	-1.7%	11	-26%	-2%
CC1CCN(C(=O)CSc2nnc(CNc3ccc(F)cc3)n2Cc2ccco2)CC1	-3.6%	-22	-8%	-6%
CNC(=O)CS(=O)(=O)CC(=O)Nc1cc(OCCOC)c(Cl)cc1Cl	3.5%	-4	0%	-4%
O=C(COC(=O)/C=C/c1ccc(C(F)(F)F)cc1)NCC1CCCO1 (stereo not given)	-3.8%	/	2%	/
Cc1ccccc1CN1CCN(C(=O)c2ccc(F)cc2)CC1	1.2%	/	4%	0%
CCn1nnc(NC(=O)c2ccccc2Br)n1	-0.5%	4	-13%	-42%
N#CC1(c2ccccc2)CCC(NCCc2ccccc2)CC1 (stereo not given)	0.1%	/	1%	0%

Taken from the results shown, seven compounds:
SMILES	Rango-impB inh	GLA inh pH 4.5	Rango release inh	miR-21 FLuc
CC1=C(C(N)=O)C(c2ccccn2)n2nc(-c3ccccc3Cl)nc2N1 (stereo not given)	-1.7%	11	-26%	-2%
CC1CCN(C(=O)CSc2nnc(CNc3ccc(F)cc3)n2Cc2ccco2)CC1	-3.6%	-22	-8%	-6%
CNC(=O)CS(=O)(=O)CC(=O)Nc1cc(OCCOC)c(Cl)cc1Cl	3.5%	-4	0%	-4%
O=C(COC(=O)/C=C/c1ccc(C(F)(F)F)cc1)NCC1CCCO1 (stereo not given)	-3.8%	/	2%	/
Cc1ccccc1CN1CCN(C(=O)c2ccc(F)cc2)CC1	1.2%	/	4%	0%
CCn1nnc(NC(=O)c2ccccc2Br)n1	-0.5%	4	-13%	-42%
N#CC1(c2ccccc2)CCC(NCCc2ccccc2)CC1 (stereo not given)	0.1%	/	1%	0%

Carrying on.
SMILES	Rango-impB inh	GLA inh pH 4.5	Rango release inh	miR-21 FLuc
O=C(Cn1nc(CNc2ccc(Cl)cc2)[n+]2c1CCCCC2)c1ccc(Cl)cc1	4.8%	6	22%	?
CC(=O)OCCC(C)C	0.9%	/	-9%	/
O=C(CCS(=O)(=O)c1cccs1)Nc1ccc(C(=O)NCc2ccc(F)cc2)cc1	-1.4%	-7	9%	-2%
CC(C)(C)c1ccc(S(=O)(=O)Nc2ccc3c(c2)COC3=O)cc1	1.8%	4	9%	-30%
NC(=O)C1=C[C@@H](C2CCCCC2)C[C@@H](OCCCCO)O1	-1.9%	1	-18%	-16%
COc1ccc(C(=O)NC2CC(C)(C)Cc3c2cnn3-c2ccccc2C)c(OC)c1OC (stereo not given)	-0.9%	/	2%	6%
CCOC(=O)c1[nH]c2ccc(Br)cc2c1NC(=O)CNC	0.0%	-1	11%	-1%
O=c1ccc(-c2ccc(S(=O)(=O)NCc3cccc(Br)c3)s2)n[nH]1	2.3%	/	3%	-10%
O=C(Cc1ccc(NC(=O)C2CCCN(C(=O)C3CC3)C2)cc1)Nc1cccc(C(=O)N2CCCC2)c1 (stereo not given)	-2.0%	/	-14%	/
CN(C)c1oc(-c2ccc(Cl)cc2)nc1S(=O)(=O)c1ccccc1	-3.3%	-2	1%	-1%
C=C(C)c1ccc(C(C)(C)NC(=O)N(Cc2ccccc2)Cc2ccco2)cc1	2.1%	-8	1%	2%
Nn1cnnc1N/N=C/c1cc([N+](=O)[O-])c(Cl)cc1Cl	-2.4%	-5	-2%	-1%
C=CCn1c(SCCN2C(=O)c3ccccc3C2=O)nc2scc(-c3ccc(F)cc3)c2c1=O	-5.5%	/	-27%	/
CC(=O)Nc1ccc(NC(C)=C(C#N)C#N)cc1	0.2%	8	-11%	-1%
O=C(NCc1ccncc1)C(=O)NCC(c1ccco1)N1CCN(c2ccccc2)CC1 (stereo not given)	0.0%	2	6%	3%
CN1C(=O)C(CCC(N)=O)NC1=S (stereo not given)	3.5%	0	10%	-6%
COCCn1c(C)cc(C(=O)CSc2nnc(-c3cccnc3)n2-c2ccccc2F)c1C	-2.6%	-3	-7%	-11%
Clc1ccc(C2C3=C(Nc4ncnn42)c2ccccc2CC3)cc1 (stereo not given)	/	8	/	-2%
COc1ccc(-c2sc(Nc3ccccc3)n[n+]2-c2ccc(F)cc2)c(OC)c1OC	-2.5%	/	-25%	0%
Cc1ccc(NC(=O)CCc2nnc3ccc(N4CCC5(CC4)OCCO5)nn23)nc1	0.0%	/	19%	0%
Cc1csc(NC(=O)c2oc3ccccc3c2C)n1	-4.8%	/	-10%	/
Cc1cccc(C(C)C)c1-n1nnnc1-c1ccccc1	?	3	-14%	-9%
Cc1noc2ncnc(Oc3ccccc3)c12	-0.4%	0	?	-10%
CCCN(CCC)C(=O)C1CCN(c2ccc(S(=O)(=O)N3CCOCC3)cc2[N+](=O)[O-])CC1	-0.9%	/	2%	1%
C=CCn1c(-c2cc(OC)c(OC)c(OC)c2)n[nH]c1=S	-2.6%	4	1%	-11%
O=C(CCSCc1ccccc1)Nc1ccc2c(c1)OCCO2	3.5%	-4	16%	-32%
N#CCCN1CCN(S(=O)(=O)c2ccc(S(=O)(=O)NC3CCCCC3)cc2)CC1	-0.5%	-4	-8%	-12%
Cc1ccc(NNC(=O)C(O)(c2cccc(C(F)(F)F)c2)c2cccc(C(F)(F)F)c2)cc1	-2.8%	-7	0%	28%
Cn1c(=O)c2c(ncn2CC(=O)OCC(=O)Nc2ccc(Cl)cc2Cl)n(C)c1=O	-0.2%	8	-14%	0%
CC(C)OCCCn1c(-c2ccco2)nc2nc3ccccc3nc21	?	?	?	-6%
CC(=O)c1c(N2CCN(c3cccc(Cl)c3)CC2)nc(=S)n(-c2ccccc2)c1C	-0.6%	-9	10%	0%
COc1ccc(N2C(=O)CC(Nc3cccc(C(C)=O)c3)C2=O)cc1OC (stereo not given)	2.0%	-1	9%	-11%
Cn1nc(C(=O)NCc2ccccc2)cc1C(=O)NCc1ccccc1	-2.6%	/	0%	14%
CCCCN1CC(=O)N2[C@H]3c4cc(C)ccc4OC[C@@H]3[C@H](C(=O)OCC)[C@]2(C)C1=O	-0.1%	/	1%	/
COc1ccc(Cl)cc1NC(=O)C(C)N1CCN(C/C=C/c2ccccc2)CC1 (stereo not given)	-0.1%	-1	3%	9%
COc1cccc(OCc2cc(C(=O)N3CCC(C(O)C(C)C)CC3)no2)c1 (stereo not given)	-2.1%	/	3%	0%
Cc1ccc2[nH]c(O)c(N=Nc3ccccc3C)c2c1	2.8%	/	-18%	-2%
Cc1ccc(CNC(=O)c2cnc3ccccc3n2)cc1	-0.4%	/	-3%	-6%
Cc1ccc(S(=O)(=O)N2C/C=C\CN(S(=O)(=O)c3ccccc3Br)CC2)cc1	2.0%	/	-5%	/
CCN(Cc1nc(-c2ccccc2)no1)C(=O)c1ccoc1C	-1.2%	/	5%	-7%
CCC1(c2ccccc2)NC(=O)N(CC(=O)Nc2ccc(Cl)c(S(=O)(=O)N3CCCCC3)c2)C1=O (stereo not given)	-4.6%	/	6%	/
O=C(c1cc(=O)c2ccccc2o1)N(Cc1ccccc1)C1CCS(=O)(=O)C1 (stereo not given)	1.3%	/	-5%	-6%
CN1C=CC2=C(C#N)C(N)C(C#N)(C#N)[C@H](c3ccccc3)[C@H]2C1 (stereo not given in full)	?	22	?	2%
CCc1noc(C)c1C(=O)N1CCN(S(=O)(=O)c2ccc(C)cc2)CC1	-1.3%	/	16%	/
C=Cc1ccc(N=Cc2c(O)ccc3ccccc23)cc1	?	/	-2%	0%
COc1ccc(S(=O)(=O)N2CCN(CC(=O)N3CCc4ccccc4C3)CC2)cc1OC	3.3%	/	-28%	/
COc1ccc(N2CS(=O)(=O)/C(=C/N(C)C)C2=O)cc1	3.2%	2	-16%	-27%
CC[C@@]1(C(=O)OC)N[C@H](CN(C)C(=O)COC)[C@@H]2C(=O)N(Cc3ccccc3)C(=O)[C@@H]21	-0.6%	/	15%	/
OCCC1CN(Cc2cccc(F)c2F)CCN1CCc1ccccc1 (stereo not given)	-0.4%	/	0%	-1%
Cc1csc(Nc2ccccc2)n1	-2.4%	-25	8%	-38%
Cc1ccsc1C(=O)OCC(=O)NCc1ccccc1	1.4%	/	0%	/
CCOc1cc(Br)c(Br)c(C=Nc2ccc(NC(C)=O)cc2)c1O	-4.7%	5	15%	-3%
COc1cccc(OC)c1C(=O)NC(=S)N1CCOCC1	-0.6%	-4	-17%	2%
O=C(Nc1sc2c(c1C(=O)O)CCCCC2)c1cccs1	3.4%	-5	-6%	25%
COc1ccc(NC(=O)CSc2nnc3ccc(-c4ccncc4)nn23)cc1	0.0%	/	35%	/
CC(=O)Nc1ccc(OCC(=O)NCc2ccc(C)cc2)cc1	3.1%	-3	0%	-13%
O=C(NC1CC1)c1cc(OCC(F)(F)F)ccc1OCC(F)(F)F	-4.1%	-6	4%	-1%
COc1cc(CNCCO)cc(Cl)c1OCc1ccc(Cl)cc1Cl	7.1%	3	0%	1%
COc1ccc(NC(=O)CN(C)C2CCS(=O)(=O)C2)cc1 (stereo not given)	1.4%	/	1%	/
COc1cc(NC(c2ccccc2)c2ccccc2)cc(OC)c1OC	1.7%	1	-6%	9%
Continued.
SMILES	Rango-impB inh	GLA inh pH 4.5	Rango release inh	miR-21 FLuc
Cn1c(=O)c2cnc(N3CCOCC3)nc2n(C)c1=O	/	0	/	-2%
COc1ccc([C@H]2CC(=O)C=C(c3c(C)cc(C)cc3C)C2)cc1	-0.6%	/	5%	/
COc1cc(/C=C2\N=C(c3c(-c4ccccc4)noc3C)OC2=O)ccc1OC(C)=O	2.9%	-12	-15%	-3%
CCCN(CC(=O)Nc1ccccc1OC)C(=O)c1ccncc1	0.6%	/	-5%	0%
CCOc1ccccc1NC(=O)Nc1ccc(CC#N)cc1	-2.6%	-18	-9%	-10%
CC1(C)CN(c2ccccc2)N(Cc2ccc(F)cc2)C1=O	0.2%	-17	4%	0%
CCC(=O)N/C(=N/c1nc(C)cc(C)n1)Nc1cccc(OC)c1	0.1%	-3	10%	8%
CCC(C)(C)n1nnnc1C(c1ccc(O)c(OC)c1)N1CCc2ccccc2C1 (stereo not given)	0.4%	9	1%	-1%
O=C(COc1ccccc1Cc1ccccc1)Nc1cccc(S(=O)(=O)N2CCOCC2)c1	-3.8%	/	1%	/
CCC1=C(c2ccc(C)cc2)S(=O)(=O)N=C1N1CCC(C(=O)NCCCN2CCCCC2C)CC1 (stereo not given)	-0.3%	/	1%	-4%
CCCn1c(=O)c(C(=O)NCCc2ccc(OC)c(OC)c2)c(O)c2ccccc21	0.1%	/	-12%	0%
O=[N+]([O-])c1cc(S(=O)(=O)N2CCOCC2)ccc1OCc1ccccc1C(F)(F)F	-0.3%	/	0%	/
CC1=C(C(=O)OCC2CCCO2)C(c2cccc(O)c2)NC(=O)N1 (stereo not given)	0.2%	4	2%	-1%
COc1cccc(CC(=NO)c2cccc(OC)c2)c1	-0.1%	/	-1%	/
O=C(COc1c(Br)cc(Br)c2cccnc12)N1CCc2ccccc2C1	-2.1%	10	-4%	5%
COCCCNC(=O)/C(C#N)=C/c1ccc(F)cc1	-3.7%	-3	9%	-1%
O=c1cc(O)c2ccccc2[nH]1	0.8%	-1	-16%	0%
CCCCC1=CC2=C(c3ccco3)C(=O)C(C)(OC(=O)c3ccc(OC)cc3)C(=O)C2=CN1CCN1CCOCC1 (stereo not given)	?	0&-8	22%	0%
CN(Cc1ccccc1)C(=O)c1ccc(NC(=O)c2ccccc2)cc1	3.1%	/	-10%	4%
